Compound activity as filed in PubChem BioAssay.
ALOX12 inhib: blocks human 12-lipoxygenase activity; purified 12-hLO, xylenol orange hydroperoxide absorbance; hit rate 0.12% among 150,000; AID 1452; Potency, µM (doses to about 57.1 µM), inactives show top-dose activity change, negative = inhibition, actives largely listed as inhibitors; active means well fitted inhibition curve with a large enough effect; inconclusive means small, poorly fitted or top-dose-only effect; further: potency means the concentration at half of the fitted maximal effect; nearly all actives have a fitted effect of over 55% in size; many of its hits are not listed in these tables
Target sequence (P18054 whole entry, looked up): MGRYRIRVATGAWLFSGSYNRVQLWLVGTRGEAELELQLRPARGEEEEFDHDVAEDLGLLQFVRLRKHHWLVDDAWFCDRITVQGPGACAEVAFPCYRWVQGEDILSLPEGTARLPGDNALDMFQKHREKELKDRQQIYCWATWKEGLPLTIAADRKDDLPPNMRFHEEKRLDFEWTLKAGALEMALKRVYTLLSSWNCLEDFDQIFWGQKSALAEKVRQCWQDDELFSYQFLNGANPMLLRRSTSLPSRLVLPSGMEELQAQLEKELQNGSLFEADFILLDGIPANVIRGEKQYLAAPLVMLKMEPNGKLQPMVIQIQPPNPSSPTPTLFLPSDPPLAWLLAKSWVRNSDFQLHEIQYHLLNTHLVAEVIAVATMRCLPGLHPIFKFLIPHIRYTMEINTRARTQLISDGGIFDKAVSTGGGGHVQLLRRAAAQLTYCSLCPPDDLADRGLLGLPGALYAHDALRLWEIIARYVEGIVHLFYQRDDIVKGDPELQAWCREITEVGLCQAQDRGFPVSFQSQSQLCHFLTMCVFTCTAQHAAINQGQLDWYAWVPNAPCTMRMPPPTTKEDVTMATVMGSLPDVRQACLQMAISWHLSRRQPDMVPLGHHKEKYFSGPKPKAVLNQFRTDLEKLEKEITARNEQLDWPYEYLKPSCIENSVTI
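Purified human 12hLO (150 nM final) was preincubated with compounds for 15 min at room temperature in 25 mM Hepes pH 7.0, 0.01% Triton X-100, then reacted with 40 uM arachidonic acid for 30 min. Hydroperoxide was detected with ferrous iron/xylenol orange.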
PNC inhibitor: blocks assembly of the perinucleolar compartment; PC3M PTB-GFP, PNC prevalence imaging, 16 h; hits give low values; activity change (PNC), negative = inhibition, % at 10 µM; hit rate 3.1% among 140,000;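 active means readout at or below -70, meaning at least 70% loss of cells showing the perinucleolar compartment, a nuclear body marking cancer cells; inconclusive means readout between -30 and a set limit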;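 further: plate controls were DMSO wells for no effect and camptothecin positive control wells for full effect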
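Compounds are pinned in duplicate onto adhered PC3M cells stably expressing GFP-tagged PTB and incubated 16 h at 37 C. Cells are then fixed, nuclei stained with Hoechst, and PNC-positive cells counted.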
IMPase inh: cell-permeable inhibitors of inositol monophosphatase (IMPase). CHO-M1 cells, IP1 accumulation, HTRF TR-FRET ratio. inhibition (IP1 accumulation), % at 46.1 µM. 120,000 tested, under 10 active; active means well fitted curve in the direction sought with a large enough effect in the signal ratio, not every such curve was filed as active; inconclusive means small, poorly fitted or top-dose-only effect, or a change in a side signal; inactive means no such curve, though single readings can be large or run the other way; the % refers to the signal ratio;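 further: cells stimulated with carbachol in lithium chloride buffer; plate controls were DMSO basal wells for no effect and reference inhibitor wells for full effect; higher means more IMPase inhibition seen as more IP1 and lower FRET ratio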
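In this qHTS, compounds (final up to 46 uM) act on CHO-M1 cells that are then activated through the M1 receptor with carbachol, in pH 7.4 buffer containing 50 mM LiCl, for 30 min. IP1 accumulation is quantified by the IP-One immunoassay.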
An asterisk follows results filed as active; ? = inconclusive; & = joins results of further samples. Unless noted, on the % scale 0 is the no-effect control and ±100 the full control effect. This is a subset (hit frequency here may not be typical).

[1] Cc1ccc(OCc2nnc(SCC(=O)Nc3cc(C)on3)n2C)cc1
[2] CCOC(=O)c1c(C=O)c(C)n(Cc2ccc(C)cc2)c1C
[3] COc1ccc(C(=O)NC(=S)Nc2ccccc2N2CCN(S(C)(=O)=O)CC2)cc1OC
[4] Cc1cccc(-c2cc(C(=O)Nc3ccc4c(c3)OCCO4)c3ccccc3n2)c1
[5] CN(C)CCCNc1cc(Cl)c(S(=O)(=O)N2CCCCC2)cc1C(=O)O
[6] S=c1[nH]nc(Cc2ccccc2)n1-c1ccccc1
assay / entry | 1 | 2 | 3 | 4 | 5 | 6
ALOX12 inhib | -5% | -20% | ? | -11% | 3% | -2%
PNC inhibitor | ? | -23 | ? | -14 | ? | 40
IMPase inh | -2 | 8 | 2 | 6 | 10 | 3

Some of these compounds in order of the PNC inhibitor value, high to low:
[6] S=c1[nH]nc(Cc2ccccc2)n1-c1ccccc1
[4] Cc1cccc(-c2cc(C(=O)Nc3ccc4c(c3)OCCO4)c3ccccc3n2)c1
[2] CCOC(=O)c1c(C=O)c(C)n(Cc2ccc(C)cc2)c1C
assay / entry | 6 | 4 | 2
ALOX12 inhib | -2% | -11% | -20%
PNC inhibitor | 40 | -14 | -23
IMPase inh | 3 | 6 | 8

Other records follow.
[7] O=C(OCC(=O)N(C1CCCCC1)C1CCCCC1)c1ccco1
[8] O=C(O)C1CC(=O)N(CCc2ccccc2)C1 (centres undefined)
[9] COc1ccc(S(=O)(=O)Nc2ccc(S(=O)(=O)N3CCCCC3)cc2)cc1
[10] O=S1(=O)CC=C(CSc2nc3ccccc3[nH]2)C1
[11] CCOC(=O)c1nnn(CC(=O)Nc2cccc(F)c2)c1C(=O)OCC
[12] CCCCn1ccc(=O)c2c(C(F)(F)F)nccc21
assay / entry | 7 | 8 | 9 | 10 | 11 | 12
ALOX12 inhib | 7% | 1% | -2% | -5% | -8% | -7%
PNC inhibitor | 3 | -30 | 18 | 20 | 40 | 13
IMPase inh | -3 | 2 | 10 | -1 | -3 | 11

Four of these compounds, set out differently:
[2] CCOC(=O)c1c(C=O)c(C)n(Cc2ccc(C)cc2)c1C
  ALOX12 inhib: -20%
  PNC inhibitor: -23
  IMPase inh: 8

[3] COc1ccc(C(=O)NC(=S)Nc2ccccc2N2CCN(S(C)(=O)=O)CC2)cc1OC
  ALOX12 inhib: ?
  PNC inhibitor: ?
  IMPase inh: 2

[4] Cc1cccc(-c2cc(C(=O)Nc3ccc4c(c3)OCCO4)c3ccccc3n2)c1
  ALOX12 inhib: -11%
  PNC inhibitor: -14
  IMPase inh: 6

[5] CN(C)CCCNc1cc(Cl)c(S(=O)(=O)N2CCCCC2)cc1C(=O)O
  ALOX12 inhib: 3%
  PNC inhibitor: ?
  IMPase inh: 10

(list continues)
[13] O=C(NCCCN1CCCCCC1)C1CC(=O)N(CCc2ccccc2)C1 (centres undefined)
[14] C=CCNc1ncnc2c1cnn2-c1ccc(OC)cc1
[15] O=C1Nc2c(c(=O)[nH]c(=O)n2-c2ccccc2)C1(Nc1ncccn1)C(F)(F)F (centres undefined)
[16] CC1=C(C(=O)Nc2ccccc2)C(c2ccncc2)n2nnnc2N1 (centres undefined)
[17] CC(=O)Cc1nsc(NC(=O)c2ccc(-c3cccc(C(F)(F)F)c3)o2)n1
[18] Cc1cccc(NC(=S)N2CCC(c3nc4ccccc4s3)CC2)c1
assay / entry | 13 | 14 | 15 | 16 | 17 | 18
ALOX12 inhib | 0% | ? | 8% | -2% | -3% | -22%
PNC inhibitor | 7 | 7 | ? | -19 | ? | -3
IMPase inh | 10 | -3 | 6 | -26 | -4 | 11

Quoted from the listing:
CN(C)CCCNc1cc(Cl)c(S(=O)(=O)N2CCCCC2)cc1C(=O)O – ALOX12 inhib: 3%
O=C(NCCCN1CCCCCC1)C1CC(=O)N(CCc2ccccc2)C1 (centres undefined) – ALOX12 inhib: 0%
CCOC(=O)c1c(C=O)c(C)n(Cc2ccc(C)cc2)c1C – IMPase inh: 8

Remaining list, next part.
[19] COc1cc2sc(C)nc2c2sccc12
[20] Cc1ccc(C)c(NC(=S)N2CCC(c3nc4ccccc4s3)CC2)c1
[21] Cc1ccccc1NC(=O)C1CC(Cl)=CCC1C(=O)O (centres undefined)
[22] CCCCCCCCCC(=O)N/N=C/c1ccc(C)s1
[23] O=C(Nc1ccc2c(c1)OCO2)c1cnn2cccnc12
[24] CCOc1ccc(C(F)(F)F)cc1NC(=O)c1ccc(OC)c([N+](=O)[O-])c1
assay / entry | 19 | 20 | 21 | 22 | 23 | 24
ALOX12 inhib | -6% | ? | -3% | 4% | -1% | 1%
PNC inhibitor | 28 | 79 | -9 | ? | ? | 27
IMPase inh | -2 | 4 | 3 | 11 | 8 | -6

[25] CCN(CC)c1ncnc2c1[nH]c1ccccc12
[26] Cc1sc2ncnc(SCC(=O)N3CCC(c4noc5ccc(F)cc45)CC3)c2c1C
[27] COc1cccc(Nc2ncnc3nc[nH]c23)c1
[28] C/C(=N\NC(=S)Nc1cccc(C)c1)c1ccccc1
[29] COc1cccc(OC)c1OCCOCCn1cnc2ccccc2c1=O
[30] CCCOc1ccc(OCCSc2ncccn2)cc1
[31] Cc1ccc(-n2c3c(c(=O)[nH]c2=O)C(NS(=O)(=O)c2ccc(C)cc2)(C(F)(F)F)C(=O)N3)cc1 (centres undefined)
[32] COC(=O)c1ccc(N2CCC(C)CC2)c(N)c1
[33] COC(=O)CSc1nc(NC(C)=O)nc(C)c1Br
assay / entry | 25 | 26 | 27 | 28 | 29 | 30 | 31 | 32 | 33
ALOX12 inhib | -2% | 6% | 0% | ? | -5% | -7% | -3% | -11% | -1%
PNC inhibitor | 7 | 17 | 27 | -1 | 38 | ? | 11 | -2 | ?
IMPase inh | 12 | -3 | -3 | 3 | 7 | 1 | 1&3 | 1 | 1
